Mtb bLac sens: beta-lactam sensitization of Mtb H37Rv, H37Rv; AID 434955, 2010; 330,000 compounds, 0.27% hits; M. tuberculosis H37Rv growth with meropenem, percent inhibition; hits of this screen are not shown here; inhibition, % at 25 µM;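 active means about 74% or more and at least 40 points above the plate without the antibiotic, then above 30% in a dose series; inconclusive means first-round hits that could not be retested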;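 further: growth measured after seven days incubation then overnight dye step; 0% = bacteria only wells and 100% = bacteria with antibiotic; twin plates without the antibiotic show which effects depend on it; some results filed as inactive read as strong as hits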
* marks the source's active call; other numbers are inactive results; ? = inconclusive. This is a subset, so the mix of outcomes need not match the whole.

SMILES	Mtb bLac sens
COc1ccc2oc(C(=O)OC(C)C(=O)N3C(C)CCCC3C)c(C)c2c1 (stereo not given)	5.0
CC(C(=O)NCc1ccccc1)N1C(=O)c2ccccc2C1=O (stereo not given)	-0.7
COc1ccc(NC(=O)CSCC(=O)Nc2ccc(S(=O)(=O)N3CCOCC3)cc2)cc1	-1.0
CCCCC(=O)NC(c1ccccc1)c1ccc2cccnc2c1O (stereo not given)	3.0
CC[C@@H](C)[C@@H]1CN([C@@H](C)CN2CCC[C@H]2CN2C(N)=NC[C@H]2CC(C)C)C(=N)N1CCc1ccc(Cl)c(Cl)c1	99.0
N#Cc1ccccc1S(=O)(=O)N1CCN(Cc2c(O)ccc3ccccc23)CC1	-4.2
CC(=O)c1cccc(OCC(=O)OCC(=O)Nc2cc(S(=O)(=O)N3CCCCC3)ccc2C)c1	-5.6
CNc1ccccc1C(C)(C)c1cn(-c2ccc([N+](=O)[O-])cc2)nn1	0.7
Cc1cnc(C(=O)N2CCN(S(=O)(=O)c3ccc(F)c(F)c3F)CC2)cn1	-13.3
CN(C(=O)c1ccc(Cl)cc1)C1CCS(=O)(=O)C1 (stereo not given)	-8.3
O=C(NCc1ccccn1)c1ccc(NS(=O)(=O)c2cccc([N+](=O)[O-])c2)cc1	-0.2
O=C(COC(=O)Cn1nnc(-c2ccccc2)n1)Nc1cc(F)ccc1F	-6.8
COc1ccccc1CN(C)C(=O)c1ccccc1SCC(=O)N1CCCC1	-6.3
Cc1ccc(CN2CCN(C(=O)CCc3ccccc3)CC2)cc1	-12.9
Cc1ccc(S(=O)(=O)N2CCC(C(=O)Nc3ncccc3O)CC2)cc1	-0.7
CN(Cc1ccccc1)S(=O)(=O)c1ccc(Cl)c(C(=O)N2CCC2)c1	0.0
CC(C)=CCC/C(C)=C/CNC(=O)CC1C[C@H](C(=O)N2CCOCC2)[C@@]2(C)c3[nH]c4ccccc4c3CCN2C1=O (stereo not given in full)	0.8
CCN(C[C@H]1N[C@@](Cc2ccccc2)(C(=O)OC)[C@H]2C(=O)N(Cc3ccccc3)C(=O)[C@@H]12)S(=O)(=O)c1ccc(OC)cc1	-5.5
C[C@H](CO)N1C[C@H](C)[C@@H](CN(C)C(=O)NC2CCCCC2)Oc2ccc(NC(=O)NC3CCCCC3)cc2C1=O	10.4
Cc1ccc(-n2c(C)cc(C(=O)OCC(=O)N3CCOCC3)c2C)cc1	-1.2
Cn1cc(C(=O)OCC(=O)NC2CCCCC2)c2ccccc21	-1.4
COc1cccc(NC(=O)CN(C)S(=O)(=O)/C=C/c2ccccc2)c1	-9.0
COC(=O)c1c(-c2ccc(SC)cc2)sc2ccc(OC)cc12	21.0
O=C(N/N=C/c1ccc(N2CCOCC2)cc1)c1ccncc1	97.2
CCCc1cc(=O)n2[nH]c(C)c(-c3ccc(Cl)cc3)c2n1	98.9
O=C(COC(=O)CN1C(=O)C2CCCCC2C1=O)Nc1c(Cl)cccc1Cl (stereo not given)	-2.3
CC(NC(=O)c1ccc2c(c1)OCO2)c1cccc(C(F)(F)F)c1 (stereo not given)	-2.2
Cn1c(N)c(C(=O)COC(=O)c2ccc(C(F)(F)F)cc2)c(=O)n(C)c1=O	-1.2
Cc1ccc(OCC(=O)OCC(=O)NC2CC2)cc1C	7.3
CN(C)S(=O)(=O)c1cc(NC(=O)COC(=O)CC2Sc3ccccc3NC2=O)ccc1Cl (stereo not given)	-1.0
CCN(c1ccccc1)S(=O)(=O)c1cccc(C(=O)NCCN2CCOCC2)c1	-1.3
COCCCn1c(SCC(=O)N2CCOCC2)nc2cc(Cl)ccc2c1=O	-3.8
Cc1cc(=O)[nH]c(SCC(=O)c2ccc(O)c(O)c2)n1	-7.7
O=C(NCC(=O)N1CCN(C/C=C/c2ccccc2)CC1)c1ccc(Br)cc1	14.6
CSCCC(NC(=O)COc1ccccc1)C(=O)N(C)CC(=O)Nc1ccc(C)cc1 (stereo not given)	-6.7
CCN(CC(=O)Nc1ccc2c(c1)OCCO2)C(=O)CCc1ccccc1Cl	-5.0
NC(=O)CSc1nc2cc(S(=O)(=O)N3CCOCC3)ccc2o1	-2.3
CC(Sc1n[nH]c(-c2cccs2)n1)C(=O)N1CCCC1 (stereo not given)	-3.4
O=C(COC(=O)c1cc[n+]([O-])cc1)Nc1ccc(Br)cc1	-0.2
Cn1c(SCC(=O)Nc2ccc3c(c2)OCO3)nnc1C(F)(F)F	-4.6
Cc1ccc(CN(C)C(=O)CSc2nnc3n2CCCCC3)c(C)c1	1.2
CCOC(=O)[C@H]1[C@H]2COc3ccccc3[C@@H]2N2C(=O)c3cc(Br)ccc3NC(=O)[C@@]12C	39.8
CC1CCCN(C(=O)COC(=O)CNC(=O)c2sc3ccccc3c2Cl)C1 (stereo not given)	-10.2
Cc1ccccc1NC(=O)c1ccco1	0.5
CN(Cc1cccs1)C(=O)CCNS(=O)(=O)c1ccc(Br)cc1	-6.8
[O-]/[N+](=C/c1ccccc1)c1ccccc1	2.3
NS(=O)(=O)c1ccc(CCNc2ccc(C(F)(F)F)cn2)cc1	8.3
O=C1[C@@H]2C3C=CC(O3)[C@@H]2C(=O)N1c1ccccc1	6.4
Cc1ccc(Nc2nnc(SC(C)C(=O)NCC3CCCO3)s2)cc1 (stereo not given)	-4.6
CCOC(=O)C1CCN(C(=O)CCc2ccc(S(=O)(=O)NC(C)C)cc2)CC1	-6.7
O=C(CCCn1c(=O)oc2ccccc21)NNC(=O)COc1ccc(F)cc1	-0.4
Cc1c(C(=O)NCc2ccccc2CN2CCCC2)oc2c(F)cccc12	-0.1
CCN(CC)CCN1C(=O)C2C(C(=O)Nc3ccc(Br)cc3)C3C=CC2(O3)C1C(=O)NC1CCCCC1 (stereo not given)	2.8
O=C(/C=C/c1cccc(Cl)c1)NNC(=O)c1ccncc1	98.6
COc1ccc(NC(=S)NC(=O)C2CCC2)cc1	-0.8
NS(=O)(=O)c1cccc2c1c([N+](=O)[O-])cc1nc(O)c(O)nc12	1.2
CCN(CC(=O)Nc1ccc(OC)cc1)C(=O)CSCc1ccc(C)cc1	-0.2
O=C(Cc1c[nH]c2ccccc12)N1CCN(S(=O)(=O)c2cccc(Cl)c2Cl)CC1	0.7
CC1CC(C)CN(C(=O)CN2C(=O)NC3(CCCCCC3)C2=O)C1 (stereo not given)	-2.5
CCc1ccc(C(=O)COC(=O)CNC(=O)c2ccc(Br)o2)cc1	?

Compounds listed so far that have a nitro group on carbon, in the order listed:
SMILES	Mtb bLac sens
CNc1ccccc1C(C)(C)c1cn(-c2ccc([N+](=O)[O-])cc2)nn1	0.7
O=C(NCc1ccccn1)c1ccc(NS(=O)(=O)c2cccc([N+](=O)[O-])c2)cc1	-0.2
NS(=O)(=O)c1cccc2c1c([N+](=O)[O-])cc1nc(O)c(O)nc12	1.2

(more compounds)
SMILES	Mtb bLac sens
CC[C@H](C)[C@@H]1O[C@@]2(C=CC1C)CC1C[C@@H](CC=C(C)C(O[C@H]3CC(OC)C(O[C@H]4CC(OC)C(O)C(C)O4)C(C)O3)C(C)C=CC=C3CO[C@@H]4C(O)C(C)=C[C@@H](C(=O)O1)[C@]34O)O2 (stereo not given in full)	95.6
COc1ccccc1CC(=O)Nc1ccc(S(=O)(=O)N(C)C2CCN(C)CC2)cc1	4.0
CC(C)CC1NC(=O)N(CC(=O)Nc2cc(F)ccc2F)C1=O (stereo not given)	-3.3
O=C(COC(=O)/C=C/c1ccc([N+](=O)[O-])cc1)NC(=O)NC1CCCCC1	6.7
CCCC1(c2ccccc2)NC(=O)N(CC(=O)Nc2ccc(N3CCOCC3)cc2)C1=O (stereo not given)	-4.4
Cc1ccc(C)c(NC(=O)CCC(=O)NNS(=O)(=O)c2ccc(Cl)cc2)c1	-1.7
COc1ccc(C(=O)OCC(=O)c2c(N)n(C)c(=O)n(C)c2=O)c(OC)c1OC	-12.4
COC(=O)[C@]1(Cc2ccccc2)N[C@H](CN(C)C(=O)C2CCCCC2)[C@@H]2C(=O)N(Cc3ccccc3)C(=O)[C@@H]21	0.7
CCc1ccc(C(=O)Nc2nc3ccccc3[nH]2)cc1	93.9
Cc1ccc(C(=O)NCC(=O)OCC(=O)c2ccccc2)s1	-6.6
COc1ccc2c(-c3ccc(S(N)(=O)=O)cc3)c(-c3ccc(S(C)(=O)=O)cc3)sc2c1	-4.2
C[C@H](NC(=O)c1ccc(Cl)cc1)C(=O)OCn1nnc2ccccc2c1=O	82.5
COc1ccccc1-n1c(C)c(C(C)=O)c2cc(O)ccc21	4.4
COc1ccc(NC(=O)c2cccc(N3C(=O)C4C5CCC(C5)C4C3=O)c2)cc1 (stereo not given)	?
COc1cccc(OCC(=O)NC2CCCCCC2)c1	1.5
Cc1ccc2nc(COC(=O)c3cnccn3)cc(=O)n2c1	4.9
CCc1cccc(N(C(=O)c2csnn2)C(C(=O)NC2CCCC2)c2cccnc2)c1 (stereo not given)	-20.6
Cn1nnnc1SCC(=O)N1N=C(c2ccc(Cl)cc2)CC1c1ccco1 (stereo not given)	1.1
Cc1cc2c(cc1S(N)(=O)=O)S(=O)(=O)CCC2	-0.2
Cc1cccc(C)c1NC(=O)CN(C)C(=O)c1ccc2c(=O)n3c(nc2c1)CCC3	-2.6
Cc1cc(NC(=O)c2ccc(C#N)cc2)n(-c2ccccc2)n1	-6.3
Cc1ccc(CN2CC(C(=O)NNC(=O)Cn3ccc(C(F)(F)F)n3)CC2=O)cc1 (stereo not given)	1.1
Cc1cc(C(=O)Nc2ccc(C)c(S(=O)(=O)N3CCOCC3)c2)c2ccccc2n1	1.5
CCn1nc(C(=O)OCC(=O)N(CCC#N)c2ccccc2)c2ccccc2c1=O	-6.6
O=C(c1cn(-c2ccccc2)nc1-c1cccnc1)N1CCN(S(=O)(=O)c2cccc(F)c2)CC1	-9.2
Cc1ccc(S(=O)(=O)N2CCOCC2)cc1C(=O)OCC(=O)c1ccc(Br)cc1	2.7
CCc1nnc(NC(=O)c2cc(S(=O)(=O)N3CCCCC3)ccc2C)s1	-0.4
Cc1ccc(C(C(=O)NC2CCCCC2)N(CCCN2CCOCC2)C(=O)c2snc(C(N)=O)c2N)cc1 (stereo not given)	-11.5
COc1ccccc1C(=O)OCC(=O)N1CCC(Cc2ccccc2)CC1	-6.9
CC(C)C(NC(=O)c1c(F)cccc1F)C(=O)NC1CC(C)(C)NC(C)(C)C1 (stereo not given)	-0.8
CCCOc1ccc(C=Nc2ccc(OC)c(S(=O)(=O)N3CCOCC3)c2)c(O)c1	7.6
CSc1ccc(S(=O)(=O)N2CCC(C(=O)Nc3ccc(C(N)=O)cc3)CC2)cc1	-3.2
O=C(CN1CCCCC1)Nc1nc(-c2ccc(F)c(F)c2)cs1	78.0
CC(Oc1ccc(Cl)cc1)C(=O)Nc1cccc(S(=O)(=O)N2CCOCC2)c1 (stereo not given)	-2.7
CC(C)NC(=O)N(C)C[C@H]1Oc2ccc(NC(=O)CCC(F)(F)F)cc2C(=O)N([C@H](C)CO)C[C@@H]1C	1.9
COc1ccc(OC)c(NC(=O)COC(=O)c2c(C)noc2C)c1	-3.9

Taken from above:
Result of `Cc1ccc(S(=O)(=O)N2CCOCC2)cc1C(=O)OCC(=O)c1ccc(Br)cc1` under Mtb bLac sens: 2.7
Result of `COc1ccc(OC)c(NC(=O)COC(=O)c2c(C)noc2C)c1` under Mtb bLac sens: -3.9
Result of `O=C(c1cn(-c2ccccc2)nc1-c1cccnc1)N1CCN(S(=O)(=O)c2cccc(F)c2)CC1` under Mtb bLac sens: -9.2
Result of `CCc1nnc(NC(=O)c2cc(S(=O)(=O)N3CCCCC3)ccc2C)s1` under Mtb bLac sens: -0.4
Result of `CC(C)NC(=O)N(C)C[C@H]1Oc2ccc(NC(=O)CCC(F)(F)F)cc2C(=O)N([C@H](C)CO)C[C@@H]1C` under Mtb bLac sens: 1.9
Result of `CC(C)C(NC(=O)c1c(F)cccc1F)C(=O)NC1CC(C)(C)NC(C)(C)C1` (stereo not given) under Mtb bLac sens: -0.8

Later entries
SMILES	Mtb bLac sens
CCOC(=O)C1CCN(C(=O)c2cc(COc3ccc(F)cc3F)on2)CC1	?
O=C(c1ccc(N2CCCC2=O)cc1)N1CCN(c2ccccc2O)CC1	-3.9
C[C@]12CCC3C(CC[C@@H]4CC(=O)CC[C@]34C)C1CC[C@@H]2O (stereo not given in full)	-3.8
Cc1c(C2(O)CCCCC2)[nH]c2cc(C(F)(F)F)ccc12	9.2
CNC[C@@H]1Oc2ccc(NC(=O)Nc3cccc4ccccc34)cc2C(=O)N([C@@H](C)CO)C[C@@H]1C	-3.4
COc1ccccc1C(CNC(=O)CNC(=O)c1ccccc1Cl)N1CCCC1 (stereo not given)	-3.4
Cc1sc2nc(CSCC(=O)Nc3ccc(C(=O)N(C)C)cc3)[nH]c(=O)c2c1C	4.5
O=C(CSc1ncccn1)N1CCCCCC1	-5.6
O=C(Cc1ccc(Cl)cc1)Nc1cccc(S(=O)(=O)N2CCCCC2)c1	0.3
CC(C)(CNCc1ccccc1)NS(=O)(=O)c1ccc(Cl)cc1	-2.2
Cc1ccsc1C(=O)OCC(=O)N(Cc1ccccc1)C(C)C	0.0
Cc1cc(NC(=O)CSc2sc3c(O)cc(=O)[nH]c3c2C#N)ccc1Br	2.0
CC[N+](CC)(CC(=O)Nc1c(C)cccc1C)Cc1ccccc1	-7.3
COc1ccccc1OCCNC(=O)CCNC(=O)c1ccccc1OC	-7.8
CC(=O)c1cccc(NCC(=O)N2CCN(S(=O)(=O)c3ccccc3)CC2)c1	2.0
CC(C)(C)OC(=O)C[C@H]1C/C=C\C[C@@H](CC(=O)N[C@H](CO)Cc2ccccc2)C(=O)NC[C@H](c2ccccc2)OC1=O	-1.7
O=C(COC(=O)/C=C/c1cccc(Br)c1)NC1CCCCCC1	27.4

Already shown: entries from further up.
SMILES	Mtb bLac sens
CC[N+](CC)(CC(=O)Nc1c(C)cccc1C)Cc1ccccc1	-7.3
COc1ccccc1OCCNC(=O)CCNC(=O)c1ccccc1OC	-7.8
CC(=O)c1cccc(NCC(=O)N2CCN(S(=O)(=O)c3ccccc3)CC2)c1	2.0
CC(C)(C)OC(=O)C[C@H]1C/C=C\C[C@@H](CC(=O)N[C@H](CO)Cc2ccccc2)C(=O)NC[C@H](c2ccccc2)OC1=O	-1.7
O=C(COC(=O)/C=C/c1cccc(Br)c1)NC1CCCCCC1	27.4
